# Screening results from PubChem BioAssay.
# Mtb growth – M. tuberculosis H37Rv growth inhibitors, H37Rv strain (AID 1626); M. tuberculosis H37Rv growth inhibition; higher % means a stronger effect; inhibition, % at 10 µM; hits with a dose series show IC50 in µM; hit rate 0.95% among 220,000;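 active = confirmed in a dose series; inconclusive = inhibition above 80% but not taken into the dose series; inactive = below 80% or under 30% at every dose of the series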;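 note: bacteria incubated seven days before Alamar blue readout; 0% = bacteria only wells and 100% = bacteria with antibiotic wells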
# RecA intein inh – Mtb RecA intein splicing inhibitors, primary screen, biochemical, fluorescence, HTS. inhibition, %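 (about 9 µM by stock and volumes)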. Protein RecA (Mycobacterium tuberculosis (strain ATCC 25618 / H37Rv)), P9WHJ3. cell-free RecA intein splicing. hit rate 0.75% among 290,000; in the data active = inhibition above about 30%; inconclusive = no clear call, values can overlap the other calls;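 note: 0% = vehicle wells and 100% = reference inhibitor control wells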
# Target sequence (P9WHJ3 whole entry, looked up): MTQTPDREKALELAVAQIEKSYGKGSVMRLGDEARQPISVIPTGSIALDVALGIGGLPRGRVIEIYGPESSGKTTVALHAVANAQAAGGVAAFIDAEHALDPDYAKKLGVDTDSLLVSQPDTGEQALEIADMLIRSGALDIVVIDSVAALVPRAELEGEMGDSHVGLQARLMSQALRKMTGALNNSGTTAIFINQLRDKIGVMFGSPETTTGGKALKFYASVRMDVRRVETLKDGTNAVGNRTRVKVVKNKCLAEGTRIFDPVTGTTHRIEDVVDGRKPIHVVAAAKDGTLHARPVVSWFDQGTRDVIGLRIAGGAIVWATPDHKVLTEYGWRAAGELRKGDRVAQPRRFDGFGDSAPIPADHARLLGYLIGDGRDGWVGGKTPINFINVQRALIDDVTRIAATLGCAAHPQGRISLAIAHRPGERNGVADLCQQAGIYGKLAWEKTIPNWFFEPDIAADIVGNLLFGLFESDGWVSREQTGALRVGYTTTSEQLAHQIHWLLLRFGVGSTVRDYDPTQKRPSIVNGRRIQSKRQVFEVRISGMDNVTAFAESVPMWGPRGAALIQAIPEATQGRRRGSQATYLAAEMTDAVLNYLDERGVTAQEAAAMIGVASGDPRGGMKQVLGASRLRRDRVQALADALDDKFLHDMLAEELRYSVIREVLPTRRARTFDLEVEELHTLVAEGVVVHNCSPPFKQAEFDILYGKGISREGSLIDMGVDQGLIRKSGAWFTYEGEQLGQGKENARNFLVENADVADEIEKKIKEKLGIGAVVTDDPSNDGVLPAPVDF
# Arbovirus anti – antivirals against arbovirus infection, primary screen, cell-based, full library, 10K replicate subset. arbovirus infection cell-based antiviral screen. inhibition, % at 10 µM. hit rate 0.37% among 200,000. AID 1251, 2008;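 active = inhibition from about 30%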;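 note: bluetongue infection of BSR cells; cell survival read as ATP light after 72 h; 0% = infected wells without compound and 100% = uninfected wells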
# Mtb betalactam – beta-lactam sensitization of Mtb H37Rv, H37Rv; M. tuberculosis H37Rv growth with meropenem, percent inhibition; hits of this screen are not shown here; inhibition, % at 25 µM; hit rate 0.27% among 330,000; AID 434955, 2010;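 active = about 74% or more and at least 40 points above the plate without the antibiotic, then above 30% in a dose series; inconclusive = first-round hits that could not be retested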;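 note: growth measured after seven days incubation then overnight dye step; 0% = bacteria only wells and 100% = bacteria with antibiotic; twin plates without the antibiotic show which effects depend on it; some results filed as inactive read as strong as hits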
# YopH PTP inh – YopH tyrosine phosphatase inhibitors, primary screen, biochemical, fluorescence Ex485/Em525 | inhibition, %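 (about 10 µM by stock and volumes)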 | hit rate 0.16% among 140,000 | AID 898, 2007;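 active = inhibition of 50% or more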;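 note: controls were vehicle for no effect and minimum signal wells for full effect; inactives centre near -20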
# Arbovirus anti repeat – further read-out of Arbovirus anti, marked with its call; inhibition, %; measured here: 10K subset replicate screen; many hits read low in the repeat;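 first of two repeat runs on a subset; 0% = infected and 100% = uninfected wells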
# Numbers without * were called inactive; ? = inconclusive; · = no result given.
SMILES,Mtb growth,RecA intein inh,Arbovirus anti,Mtb betalactam,YopH PTP inh,others
O=C(Nc1cccc([N+](=O)[O-])c1)c1ccc2snnc2c1,·,-2.2,·,0,·,
CCOC(=O)c1c(NC(=O)COc2cccc3c2CCN(CC)C3=O)sc2c1CCC2,2%,-3.4,4,0,-10,
CCC(C)Nc1nc(-c2cccc(OC)c2O)nc2ccccc12 (stereo not given),-4%,11,-26,1,-56,
O=C(Nc1cccc(F)c1)c1ccc(S(=O)(=O)N2CCCCC2)cc1,·,0.9,·,-5,·,
Cn1c(O)c(C(=O)c2ccccc2F)c(=O)n(C)c1=O,-4%,0.9,-2,3,-16,
Cc1nc2sc3c(c2c(=O)n1NC(=O)CCBr)CCCC3,-6%,-1.6,-2,-3,·,
Cc1ccc(Cc2cnc(NC(=O)C3=NCCN3)s2)cc1,2.1µM*,1.7,8,98,·,
CC(C)C[C@H](NC(=O)CCCn1nnc2ccccc2c1=O)C(=O)O,-7%,0.9,·,2,·,
CC(C)[C@H](N)c1nnc(SCc2ccc(Cl)cc2)o1,-4%,-0.5,6,-5,-32,
CN(C)C(CNC(=O)c1ccc(C(F)(F)F)cc1)c1ccco1 (stereo not given),·,-1.8,·,-8,·,
Cc1ccc(NC(=O)Nc2nnc(-c3ccccc3F)s2)cc1,-12%,-0.7,·,-8,·,
Cc1nc2sc(C(=O)Nc3ccccc3Cc3ccccc3)c(C)c2c(=O)[nH]1,-5%,-0.6,·,-3,·,
COc1ccc(/C(C)=C2/SC(=S)N(CCC(=O)O)C2=O)cc1,-7%,2.8,8,-15,-16,
O=C(O)c1cccc(Nc2nc(-c3cc4ccccc4oc3=O)cs2)c1,·,-6.4,·,3,·,
Cc1cc(SCC(=O)N2CCC(c3noc4ccc(F)cc34)CC2)nc2ccccc12,72%,7.1,-2,?,-29,
CN(C)c1nc(N(C)C)nc(N2CCCCC2)n1,-6%,-1.3,11,3,-42,
O=C(NNC(=S)Nc1ccccc1C(F)(F)F)c1cccnc1,7%,·,-2,4,·,
Cc1cccc(-c2nc(CN3CCCC(C(=O)NC4CCCCCC4)C3)c(C)o2)c1 (stereo not given),4%,11,-18,99,-15,
O=C(c1ccc(Br)cc1)c1cc([N+](=O)[O-])ccc1N1CCCCC1,-6%,6.3,-27,1,-22,
COc1ccc(NC(=S)NCc2cccs2)cc1,-11%,-0.4,-10,-5,·,
COc1nc(NCC2CCCO2)nc(N2CC3CC(C2)c2cccc(=O)n2C3)n1 (stereo not given),-10%,0.7,·,-6,·,
O=C(C[n+]1cc(Br)cc(Br)c1)c1cccc([N+](=O)[O-])c1,1%,·,-4,24,·,
COc1cc(C(=O)ON=C2C=C(C)C(=O)C(C)=C2)cc(OC)c1OC,-5%,-5.7,-37,93,-23,
CC1CCCN(C(=O)CCCn2c(=S)[nH]c3ccccc3c2=O)C1 (stereo not given),-4%,0.0,2,-2,-16,
COc1ccc(NC(=O)CN(C)C(=O)c2ccc(COc3ccccc3)o2)cc1,·,-1.0,·,-14,·,
Cc1ccc(S(=O)(=O)N2CCOCCOCCOCCOCCOCC2)cc1,·,0.5,·,0,·,
Cc1oc(-c2ccccc2F)nc1CN1CCC(C(=O)NC2CC2)CC1,-8%,6.2,5,-29,-33,
CCOC(=O)c1ccc(NC(=O)CSc2nnnn2CCCO)cc1,69%,2.2,1,80,-32,
Cc1cccc(C(=O)Nc2cccc(C(=O)Nc3cc(C)ccn3)c2)c1,·,-1.7,·,-3,·,
Cc1cc(C)n(CC(=O)c2ccccc2)c(=O)c1C#N,-2%,-0.9,4,-10,-21,
COc1ccccc1NC(=O)N(C1CCCC1)C1CCN(C(C)=O)CC1,3%,1.9,5,-3,13,Arbovirus anti repeat=0
Cc1noc(C)c1CN1C(=O)c2cccc([N+](=O)[O-])c2C1=O,·,-8.5,·,-2,·,
CCOC(=O)N1CCC(NC(=O)CCCC(=O)O)CC1,-9%,-2.1,·,-13,·,
Cc1cccc2nc(-c3cccnc3)c(Nc3ccccc3)n12,0%,-1.5,25,4,·,
Cc1ccc([N+](=O)[O-])cc1NC(=O)c1ccc2c(c1)OCO2,-5%,·,-9,1,·,
O=C1C2C3C=CC(C3=C3CCCCC3)C2C(=O)N1Cc1ccccc1 (stereo not given),-1%,4.4,5,1,-53,
Cc1cccc(C)c1OCC(=O)NNC(=O)c1ccoc1C,-2%,1.1,7,-7,-35,
Nc1ccc(C(=O)N/N=C/c2cccc(Oc3ccccc3)c2)cc1,·,4.0,·,3,·,
COC(=O)c1ccc(CNC(=O)c2ccc(NS(=O)(=O)c3ccc4[nH]c(=O)[nH]c4c3)cc2)cc1,·,-1.0,·,-3,·,
O=S1(=O)CCN(Cc2ccc(Cl)c(Cl)c2)CC1,3%,6.1,4,4,-18,
Cc1ccc(S(=O)(=O)Nc2ccc(S(=O)(=O)NCC3CCCO3)cc2)cc1 (stereo not given),·,0.2,·,8,·,
Cc1ccc(NC(=O)CS(=O)CC(=O)N(CC(=O)NC2CCCC2)c2cccc(C)c2C)cc1 (stereo not given),0%,1.0,8,-4,-6,
CCOC(=O)N1CCN(C(=O)c2ccc(OCC)c(OCC)c2)CC1,-5%,-4.1,3,-7,-26,
CCOC(=O)C(/C=C(\C#N)C(=O)OCC)=C(/N)N1CCN(c2ccc(Cl)cc2)CC1,12µM*,-5.5,-8,100,-21,
COc1ccc(CN2CC[C@@H](N3CCOCC3)[C@H](O)C2)cc1F,·,1.0,·,-10,·,
Cc1ccc(CC(NC(=O)c2ccccc2)C(=O)NC(Cc2ccccc2)C(=O)O)cc1 (stereo not given),-4%,0.9,18,-9,·,
COc1cc(/C=C2/SC(=S)N(Cc3ccccc3)C2=O)ccc1O,·,29,·,1,·,
CCN(CCCl)Cc1ccccc1Br,-12%,5.8,·,1,·,
CC12CN3CC(C)(CN(C1)C3c1cccs1)C2O (stereo not given),2%,-1.3,4,-17,-9,
O=C(NCCc1nc(-c2ccccc2)cs1)c1ccc(Br)cc1,10%,-1.4,3,4,-25,
Cc1ccsc1C(=O)Nc1nnc(-c2ccco2)o1,?,3.0,-17,89,-25,
CC(=O)Nc1ccc(NC(=O)c2ccc(NS(=O)(=O)c3cccc4cccnc34)cc2)cc1,·,-2.3,·,4,·,
COc1ccc([N+](=O)[O-])cc1NC(=O)c1ccc(C)o1,3%,-0.9,-14,7,-25,
COc1ccc2[nH]c(=O)c(CN(C(=O)NC3CCCCC3)C3CCCCC3)cc2c1,>100µM*,-4.0,-21,12,-23,
COc1ccc(N(CC(=O)NC(C)(C)C)C(=O)CCC(=O)Nc2nccs2)cc1,·,-0.3,·,-1,·,
CCN1C(=O)/C(=c2\o/c(=C3\C=Cc4ccccc4N3CC)c(=O)n2CC)SC1=S,4%,1.6,13,·,-41,
N#CCCN1CCN(C(=S)c2ccc(-c3ccc(Cl)cc3)o2)CC1,6%,5.4,17,2,-33,
N#CCCN(CCC#N)C(=S)NC1CC2C=CC1C2 (stereo not given),7%,-3.5,·,-3,·,
Nc1nnnn1/N=C/c1ccccc1OCc1ccccc1,-4%,0.5,-3,-2,6,
CN(C)S(=O)(=O)c1ccc(Cl)c(NC(=O)CN2CCCCCC2)c1,-6%,-0.3,3,-5,·,
# Next part:
SMILES,Mtb growth,RecA intein inh,Arbovirus anti,Mtb betalactam,YopH PTP inh,others
COc1ccccc1C(=O)Nc1ccc2c(c1)nc(CN1CCN(C(C)=O)CC1)n2C,-7%,0.8,1,-17,-8,
CCn1nc(C)cc1C(=O)N1CCCC(C(=O)c2ccc(OC)cc2C)C1 (stereo not given),·,-5.1,·,2,·,
CN(Cc1ccc2nonc2c1)Cc1nc(Cc2cccc(F)c2)no1,8%,4.6,9,10,·,
CN1CCN(S(=O)(=O)c2cc([N+](=O)[O-])ccc2N/N=C/c2ccc(Cl)cc2)CC1,1%,0.2,-2,1,-12,
CC1(C)CC(=O)CC(C)(C)N1OC(=O)c1ccco1,9%,0.4,1,-11,11,
C=CCn1c(Cc2ccc(OC)cc2)nnc1SCC(=O)NCCc1ccccc1,6%,1.1,0,0,-6,
O=C(CSc1cn(CCNC(=O)c2ccccc2)c2ccccc12)NCC1CCCO1 (stereo not given),·,-1.2,·,-7,·,
CC1CC(C)CN(S(=O)(=O)c2ccc3c(c2)NC(=O)C(C)C(=O)N3)C1 (stereo not given),·,-0.4,·,6,·,
CC(=O)Nc1sc2c(c1C(c1ccc(Cl)cc1)N1CCOCC1)CCCC2 (stereo not given),-6%,-3.2,-2,-5,-10,
Cc1cc(SCC(=O)OCC(=O)N(C)c2ccccc2)nc2ccccc12,·,4.7,·,-7,·,
COCCN1Cc2cccc(C(=O)NC(C)CCc3ccco3)c2C1=O (stereo not given),-4%,-1.1,-2,-8,·,
Cn1c(CN2CCCC2)nc2cc(NC(=O)COc3ccccc3)ccc21,-2%,-2.2,-5,-3,-25,
O=C1OC(c2cccc([N+](=O)[O-])c2)C2(CCCC2)C(=O)C12CCCCC2 (stereo not given),9%,14,18,2,-6,
Cn1c(SCC(=O)c2ccccc2)nnc1-c1cnccn1,-14%,0.5,1,?,-34,
O=C(O)c1ccccc1-c1ccccc1C(=O)NCCc1ccccc1,·,-1.4,·,4,·,
CCCCc1ccc(NC(=S)NCC2CCCO2)cc1 (stereo not given),38%,-3.4,16,-6,·,
CC/C(=C(\c1ccc(O)cc1)c1ccc(OCCN(C)C)cc1)c1ccccc1,8.8µM*,22,-22,95,·,
COc1ccc(C[C@@H]2CN3C(=NC[C@@H]3Cc3ccc(O)cc3)N2C[C@H](C)NC(=O)CCC2CCCCC2)cc1,61%,5.1,·,100,·,
CN(C(=O)COc1ccc(C(C)(C)C)cc1)C1CCS(=O)(=O)C1 (stereo not given),-4%,-0.5,5,-1,54*,
CN1C(=O)C(CC(=O)Nc2ccccc2)S/C1=N/c1nccs1 (stereo not given),-4%,-2.2,4,0,·,
Cc1nnc2ccc(N3CCN(c4cccc(C(F)(F)F)c4)CC3)nn12,41%,7.3,-16,-3,7,
Cc1cc(C)cc(N(CC(=O)NCC2CCCO2)S(=O)(=O)c2c(C)noc2C)c1 (stereo not given),-8%,-0.8,9,1,-33,Arbovirus anti repeat=-1
CNC(=O)c1ccc(NC(=O)c2cccc(C(F)(F)F)c2)cc1,4%,-7.2,-2,-5,·,
CC(C)C(=O)Nc1ncc(Cc2ccc(Cl)cc2)s1,19%,2.0,-12,46,·,
Cc1nn(Cc2c(Cl)cccc2Cl)c(C)c1NC(=O)CCCn1nc(C)c([N+](=O)[O-])c1C,6%,-0.1,9,8,-39,

# A portion of the library; count on the stated rates, not on these rows.
